From PubChem
Measles inh = inhibitors of measles virus growth in infected cells. infected Vero cells, GFP fluorescence, 64 h; active compounds read low. z-score (concentration not given with the values). 0.1% of 33,000 active;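 active = z-score under -3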;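 also: score is relative to mean and SD of the compound wells of a plate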
The depositor's hits bear a star. Some of the compounds tested; count on the stated rates, not on these rows.

nr | SMILES | Measles inh
1 | CCn1c(-c2ccc(Br)o2)n[nH]c1=S | 0.33
2 | CCCCn1c2ccc(Br)cc2c2nc3ccccc3nc21 | 0.73
3 | CCn1c2ccccc2c2cc(NC(=O)CN3CCN(S(=O)(=O)c4cccc([N+](=O)[O-])c4)CC3)ccc21 | -1.4
4 | O=C(NCCSc1c[nH]c2ccccc12)c1ccc(Br)cc1 | -0.23
5 | O=C(Oc1ccc(C(=S)N2CCCCC2)cc1)c1ccc(Cl)cc1 | -1.1
6 | Clc1ccc(-c2cc(-c3nc(Cc4cccs4)no3)c3ccccc3n2)cc1 | -1
7 | Cc1cc(C)c(C#N)c(SCS(=O)Cc2ccc(Cl)cc2)n1 (stereo unspecified) | -0.68
8 | CCCc1oc2c(cc(NS(=O)(=O)c3ccc(C)cc3)c3ccccc32)c1C(=O)OCC | 0.8
9 | O=C(CSC1=NCCS1)N1CCCc2ccccc21 | -0.74
10 | O=C(Cc1ccccc1)NC(c1ccccc1Cl)c1ccc2cccnc2c1O (stereo unspecified) | -0.02
11 | Cc1cc2oc(=O)c3c(c2c2occ(-c4ccc(Br)cc4)c12)CCC3 | -0.03
12 | CCN1C(=O)c2ccccc2Sc2ccc(C(=O)NCc3ccccc3Cl)cc21 | 0.95
13 | CC1=C(C(=O)OC(C)C)C(c2ccc(C)cc2)C(C(=O)OC(C)C)=C(C)N1 | -0.68
14 | Cc1ccc(N2C(=O)C3C4c5ccccc5C(C)(c5ccccc54)C3C2=O)c([N+](=O)[O-])c1 (stereo unspecified) | 1.7
15 | Cc1ccc2nc(-c3ccccc3)cc(C(=O)Nc3ccccc3C)c2c1 | -0.51
16 | CCC1Oc2ccccc2N(CC(=O)NCCCOC)C1=O (stereo unspecified) | 0.96
17 | CSc1nc(N)nc(SCC(=O)Nc2ccccc2C)c1C#N | 0.23
18 | COc1cc(Br)cc(C=Cc2ccc3cccc(OC(C)=O)c3n2)c1OC(C)=O | 0.28
19 | COc1ccc(S(=O)(=O)N2CCC(C(=O)N3CCC(C)CC3)CC2)cc1OC | -0.32
20 | CCOC(=O)c1c(N2CCN(c3ccccc3)CC2)cc(C)nc1C | -1.2
21 | Cc1[nH]nc(-c2ccc(OC(C)C)cc2O)c1-c1ccccc1 | -1.4
22 | COc1ccc(Nc2cc(C(=O)NCc3ccc(Cl)cc3)c3ccccc3n2)c(OC)c1 | 0.5
23 | Cc1ccc(NC(=O)c2c(C)nn(-c3ccccc3)c2Cl)c(C)c1 | -0.6
24 | CCOC(=O)c1cc2c(=O)n3ccccc3nc2n(C(C)C)c1=NC(=O)c1cccc(OC)c1 | -0.07
25 | C=CCn1cc(F)c(=O)[nH]c1=O | -0.32
26 | COc1cc(C2C=C(c3ccc(F)cc3)Nc3nnnn32)ccc1OC(F)F (stereo unspecified) | -0.06
27 | Cc1cccn2c(=O)c3cc(C(=O)N(CC(C)C)CC(C)C)sc3nc12 | -0.93
28 | Cc1cc(C)n(C(=O)CNC(=O)COc2ccccc2C)n1 | 1.2
29 | COC(=O)c1ccc(C2NC(=O)CS2)cc1 (stereo unspecified) | -0.91
30 | O=C(CSc1nnc(-c2cccnc2)n1Cc1ccccc1)Nc1ccccc1Cl | -0.26
31 | COc1cccc2cc(NC(=O)c3ccc(Cl)cc3)c(=O)oc12 | -0.14
32 | O=C(NCCCN1CCOCC1)c1cc(-c2ccc(Br)cc2)on1 | 0.37
33 | O=C(CN(Cc1ccccc1)S(=O)(=O)c1ccc(Br)cc1)NCc1ccccn1 | 1.3
34 | CCOc1ccccc1C1CC(c2ccc(I)cc2)Nc2ncnn21 (stereo unspecified) | -0.1
35 | CCOc1ccc(S(=O)(=O)N(CC(=O)Nc2ccccc2)c2ccccc2)cc1 | -0.35
36 | COc1ccc(C)cc1-n1cnc2cc(C(=O)NCc3ccc(F)cc3)ccc21 | -2.1
37 | O=C(CSc1ncn[nH]1)c1ccc(-c2ccccc2)cc1 | 0.16
38 | CN1c2ccccc2N(C)C1c1ccc(O)cc1 | -0.14
39 | CCC1CCCCN1C(=O)c1cc2c(C)nn(-c3ccccc3)c2s1 (stereo unspecified) | -0.76
40 | CCCCCCCOC(=O)C1=C(C)Nc2nc3ccccc3n2C1c1ccc([N+](=O)[O-])cc1 (stereo unspecified) | -0.71
41 | COC(=O)c1ccc(C(=O)OC)c(NC(=O)c2cccc([N+](=O)[O-])c2C)c1 | -0.55
42 | Cc1ccc(N(Cc2ccc(Br)cc2)C(=O)c2ccc(F)cc2)cc1 | -0.64
43 | Cc1ccc(C(=O)O)cc1NS(=O)(=O)c1ccc2c(c1)c(=O)n(C)c(=O)n2C | -1.2
44 | OCC(CO)(CO)c1ccccn1 | -0.99
45 | COC(=O)Oc1c(Br)cc2oc(=O)sc2c1[N+](=O)[O-] | 1.8
46 | N#Cc1sc2nc3c(c(C4CC=CCC4)c2c1N)CCC3 (stereo unspecified) | -0.73
47 | COc1ccc(C2=NN(C(=O)c3ccc(Br)o3)C(c3ccc(N(C)C)cc3)C2)cc1OC (stereo unspecified) | -0.24
48 | CCOC(=O)C(Nc1cc2oc3ccccc3c2cc1OC)c1ccccc1 (stereo unspecified) | -0.51
49 | CC1CCN(C(=O)c2c[nH]c3ccc(S(=O)(=O)N4CCOCC4)cc3c2=O)CC1 | 0.17
50 | Cc1cccc(CS(=O)(=O)Cc2ccc(C(=O)NC(C)c3ccccc3)o2)c1 (stereo unspecified) | 0.53
51 | NCCCc1nc2c(ccc3ccccc32)[nH]1 | 2
52 | COc1ccccc1CNCc1cc(OC)c(OC)cc1OC | 0.65
53 | Clc1cccc(N2CCN(Cc3cn4c(-c5cccc(Br)c5)nnc4s3)CC2)c1 | -0.8
54 | CCn1c2ccccc2c2cc(C3Nc4ccccc4NC4=C3C(=O)CC(c3ccc(OC)c(OC)c3)C4)ccc21 (stereo unspecified) | 0.63
55 | CCN(CC)c1ccc(NC(=O)CCS(=O)(=O)c2ccc(Br)cc2)c(C)c1 | 1
56 | CCCC1=NN(C(=O)c2ccc(C)cc2)C(O)(C(F)(F)F)C1 (stereo unspecified) | 0.07
57 | Cc1ccc2[nH]c3c(=O)n(C)cnc3c2c1 | -0.82
58 | Cc1ccc(S(=O)(=O)N2CCN(C(=O)CN3CCCC3)C2C(C)C)cc1 (stereo unspecified) | -0.49
59 | CCC(=O)N1CCc2cc(Br)cc(S(=O)(=O)NCCCOC(C)C)c21 | -0.78
60 | COc1ccc2oc(=Nc3cccc(F)c3)c(-c3nc4ccccc4[nH]3)cc2c1 | -1.2

Going on with the list.
nr | SMILES | Measles inh
61 | O=C1C2C3C=CC(C2C(=O)N1c1ccc(O)cc1)C1C2C(=O)N(c4ccc(O)cc4)C(=O)C2C31 (stereo unspecified) | -0.74
62 | O=C(O)Cn1cnc([N+](=O)[O-])c1 | 0.43
63 | Cc1cc(C)c2c(=O)[nH]c(SCc3ccccc3)nc2n1 | -0.61
64 | COc1ccc2c(c1)c(C(C)=O)c(C)n2-c1cccc(Br)c1 | 0.02
65 | CCN(CC)c1ccc(N2C(=O)C3C4CC(C(Br)C4Br)C3C2=O)cc1 (stereo unspecified) | 0.66
66 | COC(=O)C1C2C=CC3(CN(Cc4ccco4)C(=O)C13)O2 (stereo unspecified) | 1.5
67 | COc1ccc(C2CC(=O)C3=C(C2)Nc2ccccc2NC3c2ccccc2OCc2ccccc2)cc1 (stereo unspecified) | -2.5
68 | C=CCN1C(=O)C2C3C=CC(C2C1=O)C1C2C(=O)N(CC=C)C(=O)C2C31 (stereo unspecified) | -0.17
69 | CC(=O)Nc1ccc(S(=O)(=O)N2CCN(c3cc(C)nc4ccccc34)CC2)cc1 | 1.9
70 | COc1ccccc1CNc1ccc(C(=O)Nc2ccc(C(C)C)cc2)cc1[N+](=O)[O-] | 0
71 | COc1ccc(CCn2c(-c3ccc(S(=O)(=O)N4CCOCC4)cc3)csc2=Nc2cccc(C(F)(F)F)c2)cc1OC | 0.48
72 | CC(=O)N1CCc2cc(Br)cc(S(=O)(=O)N3CCN(C(=O)c4ccco4)CC3)c21 | -0.23
73 | CN(C)c1ccc(C(=O)N2N=C(c3cccc(Br)c3)CC2(O)C(F)(F)F)cc1 (stereo unspecified) | 1
74 | CCOC(=O)c1c(NC(=O)c2ccccc2)sc(C(=O)N2CCCCC2)c1C | 1.7
75 | O=c1c2c(sc3ccccc13)NCN(Cc1ccccc1)C2 | -0.65
76 | CCN1CCCC1CNC(=O)c1cc2c(=O)[nH]c3ccccc3c2n1C (stereo unspecified) | -1.2
77 | O=C1c2cc3ccccc3cc2C(=O)N1c1ccc([N+](=O)[O-])cc1 | 0
78 | CCCN(CCC)S(=O)(=O)c1ccc(F)c(C(=O)Nc2ccc(Cl)cc2)c1 | 0.35
79 | O=C(Nc1ccc(-c2ccc(NC(=O)c3cccc([N+](=O)[O-])c3)cc2)cc1)c1cccc([N+](=O)[O-])c1 | -0.7
80 | CC(=O)c1cccc(NS(=O)(=O)c2ccc3c(c2)CCCN3C(C)=O)c1 | 1.4
81 | Cc1cccc(-n2nc3c(c2NC(=O)C2CCCC2)CS(=O)C3)c1C (stereo unspecified) | -2
82 | CCC(=O)NC(=Nc1nc(C)c2cc(C)cc(C)c2n1)NC(=O)CC | -0.91
83 | COc1cccc(N2C(=O)Nc3ccc(Br)cc3C2(O)C(=O)NC2CCCc3ccccc32)c1 (stereo unspecified) | 3.8
84 | CCOCCCNCc1cccc(C)c1 | 0.34
85 | COc1cccc(C(c2c(C)[nH]c3ccccc23)c2c(C)[nH]c3ccccc23)c1OCC(=O)O | -0.62
86 | Cc1cc(NC(=O)NS(=O)(=O)Oc2ccccc2)no1 | 1.4
87 | Cc1nc(SCC(=O)Nc2cccc(C(F)(F)F)c2)c(C#N)c(C)c1Cl | -0.48
88 | Cc1ccc(-n2cnc3cc(C(=O)NC4CCCC4)ccc32)cc1Cl | 0.63
89 | O=C(c1cnc(N2CCN(c3ccccn3)CC2)c2ccccc12)N1CCOCC1 | 0.17
90 | O=C(Nc1nc(-c2ccc(F)cc2)cs1)c1ccc(S(=O)(=O)N2CCCC2)cc1 | 0.43

Looked up by structure from the entries so far, 5 records:
nr | SMILES | Measles inh
68 | C=CCN1C(=O)C2C3C=CC(C2C1=O)C1C2C(=O)N(CC=C)C(=O)C2C31 (stereo unspecified) | -0.17
67 | COc1ccc(C2CC(=O)C3=C(C2)Nc2ccccc2NC3c2ccccc2OCc2ccccc2)cc1 (stereo unspecified) | -2.5
83 | COc1cccc(N2C(=O)Nc3ccc(Br)cc3C2(O)C(=O)NC2CCCc3ccccc32)c1 (stereo unspecified) | 3.8
63 | Cc1cc(C)c2c(=O)[nH]c(SCc3ccccc3)nc2n1 | -0.61
74 | CCOC(=O)c1c(NC(=O)c2ccccc2)sc(C(=O)N2CCCCC2)c1C | 1.7

(more compounds)
nr | SMILES | Measles inh
91 | O=C(Nc1ccc(OC(F)(F)F)cc1)C1CCN(S(=O)(=O)c2cccs2)CC1 | -0.3
92 | O=C(OCCN1CCCCC1)c1ccccc1Cl | 0.32
93 | O=C(O)C1C2C=CC(O2)C1C(=O)N1CCC(Cc2ccccc2)CC1 (stereo unspecified) | -0.74
94 | CC(C)C(NC(=O)CC12CC3CC(CC(C3)C1)C2)C(=O)O (stereo unspecified) | -0.1
95 | Cc1cccc(N2C(=O)c3cc4ccccc4cc3C2=O)c1 | -0.05
96 | COc1ccc2c(c1)N(C(=O)CN1C(=O)C3CCCCC3C1=O)C(C)(C)C=C2C (stereo unspecified) | -0.18
97 | O=C(CSc1nnc2scc(-c3ccccc3)n12)NCc1ccco1 | 1.1
98 | COc1cc(C(=O)NCCOc2cc(C)cc(C)c2)cc(OC)c1OC | -0.6
99 | COc1ccc(C(=O)CSc2nc(N)cc(=O)[nH]2)cc1 | -0.13
100 | CCOC(=O)c1ccc2c(c1)C1C=CCC1C(c1cccc([N+](=O)[O-])c1)N2 (stereo unspecified) | -0.74
101 | CCC(=O)N1CCc2cc(S(=O)(=O)NC(CC(C)C)C(=O)N3CCOCC3)ccc21 (stereo unspecified) | -0.32
102 | O=C(CN1C(=O)CSc2ccccc21)NC1CCCCC1 | -0.43
103 | CC(C)CCNC(=O)CCn1nc(-c2ccc(Cl)cc2)ccc1=O | -0.44
104 | Cc1ccc(C(=O)N(C)C2CCCCC2)cc1[N+](=O)[O-] | 1.6
105 | CC1=C(C(=O)OC(C)C)C(c2ccc(O)cc2)C2=C(CC(c3ccccc3)CC2=O)N1 (stereo unspecified) | -0.72
106 | CC(=O)Nc1cc(O)cc(NC(C)=O)c1 | -0.43
107 | COc1cc2c(cc1OC)C(C(=O)O)C(c1ccc(SC)cc1)N(C)C2=O (stereo unspecified) | -0.18
108 | CCOC(=O)c1c(C)n(C)c2cc(Br)c(OC)cc12 | -0.43
109 | COc1cc2c(cc1OC)C(Nc1ccc(Br)cc1)=NC1(CCCC1)C2 | -1.1
110 | Cc1cccc(N(CC(N)=O)C2SC(=O)NC2=O)c1 (stereo unspecified) | -0.28
111 | CCCCN(C)c1ncnc2c1sc1nc3c(cc12)COC(C)(C)C3 | -0.82
112 | COc1ccccc1Nc1ncnc2nc[nH]c12 | 0.71
113 | O=C(O)CCCCCn1c(=O)[nH]c2ccsc2c1=O | 0.98
114 | CC1=C(C(=O)OCCSc2ccccc2)C(c2ccc3c(c2)OCO3)NC(=O)N1 (stereo unspecified) | -0.05
115 | CCS(=O)CCSc1nc(-c2cccs2)cc(-c2ccccc2)c1C#N (stereo unspecified) | -0.07
116 | Cc1ccc(C2=NNC3(S2)C(=O)Nc2ccc(Br)cc23)cc1 (stereo unspecified) | -1.3
117 | O=c1c2sc(=S)n(Cc3ccco3)c2nc(SCc2cc(=O)n3cc(Cl)ccc3n2)n1-c1ccccc1 | -1.6
118 | O=C1c2cccc3c(N4CCCCC4)ccc(c23)C(=O)N1CCOC(=O)C12CC3CC(CC(C3)C1)C2 | 0.05
119 | CCOc1ccccc1OCCCCn1c(-c2ccc(Cl)cc2)nc2ccccc2c1=O | -0.38
120 | CCCCn1c(=NC(=O)c2cccs2)c(C(=O)OCC)cc2c(=O)n3ccccc3nc21 | -0.22

Compounds above containing a cyano group:
nr | SMILES | Measles inh
7 | Cc1cc(C)c(C#N)c(SCS(=O)Cc2ccc(Cl)cc2)n1 (stereo unspecified) | -0.68
17 | CSc1nc(N)nc(SCC(=O)Nc2ccccc2C)c1C#N | 0.23
46 | N#Cc1sc2nc3c(c(C4CC=CCC4)c2c1N)CCC3 (stereo unspecified) | -0.73
87 | Cc1nc(SCC(=O)Nc2cccc(C(F)(F)F)c2)c(C#N)c(C)c1Cl | -0.48
115 | CCS(=O)CCSc1nc(-c2cccs2)cc(-c2ccccc2)c1C#N (stereo unspecified) | -0.07
